From PubChem BioAssay
BJeLR viability: MLPCN primary cell-based screen for lethality selective to Ras in HRASV12 cells | BJeLR (HRASV12) viability, CellTiter-Glo ATP luminescence, 48 h; reference of the scale not given here | inhibition, % (test concentration not listed) | 300,000 compounds, 0.17% hits | AID 1554, 2009;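 active means replicate mean above 50%; inconclusive means above 50% but judged a plate artefact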;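 further: 50 nL library stock added to about 25 µL; numbers are from one replicate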
PrP 5UTR inh: inhibition of PrP 5' UTR reporter expression. cell-based PrP 5' UTR mRNA reporter, plate reader. inhibition, % (no concentration beside the values). 340,000 compounds, 0.35% hits;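 active means every replicate at 50% or more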;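 further: 0 = median of the neutral control wells; tested in H4 reporter cells; numbers are from one replicate; inactives centre near -14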
Sa RN4220 lethal: growth inhibition of S. aureus RN4220, primary screen, OD600. inhibition, % (no concentration beside the values). 330,000 compounds, 0.33% hits. 16 h;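 active means z-score of -3 or lower and OD600 up to 0.18 on both plates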;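 further: plate controls were untreated cells for no effect and reference antibiotic for full effect; stock transfer was 100 nL into about 80 µL; one replicate is shown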
Mtb hypoxia rep: PubChem AID 1159583. M. tuberculosis hypoxia-regulated fluorescent reporter, fluorescence. fluorescence inhibition, % (no concentration beside the values). 300,000 compounds, 0.1% hits;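 active means 35 to 45% if threefold the growth effect, above 45% if 1.5-fold the growth effect; inactive means the rest, general growth blockers included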;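 further: wells of about 50 µL received 100 nL stock; 0% = vehicle wells and 100% = reference inhibitor wells; whole bacteria with a GFP reporter of the hypoxia response; strong numbers were not always called active; many hits fall short of the cut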
ugtP null kill: growth inhibition of ugtP-null S. aureus, primary screen, RN4220 ugtP deletion, OD600 | 330,000 compounds, 0.54% hits | 16 h; some inactives read as strong as hits | AID 1259309, 2017 | growth inhibition, % (concentration not given with the values);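 active means z-score under -3 and OD600 up to 0.15 on both plates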;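 further: plate controls were untreated wells for no effect and antibiotic for full effect; wells of about 80 µL received 100 nL stock; the first replicate is given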
Bead autofluor: compound fluorescence in toxin protease inhibitor counterscreen | compound autofluorescence counterscreen, microsphere flow cytometry; active compounds read high | fluorescence intensity (no concentration beside the values) | 360,000 compounds, 3.1% hits | AID 624483;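 active means at least 3 SD above the mean of all compounds, about 16000 in these data; inconclusive means too few beads counted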;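 further: 100 nL of 1 mM stock went into each well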
Mtb hypoxia rep growth: recorded beside Mtb hypoxia rep, whose call it bears; growth inhibition, %; measured here: M. tuberculosis growth (absorbance);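 0% = vehicle and 100% = reference antibiotic; read after six days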
* marks the source's active call; other numbers are inactive results.

`C/C=C(\C)CN1CCC(Oc2cccc(C(=O)NCc3ccccn3)c2)CC1` gave BJeLR viability 8, PrP 5UTR inh -6 and Bead autofluor 6168.
For CCc1nc(N2CCN(CC(=O)NCC3CCCO3)CC2)c(C#N)c2c1COC(C)(C)C2 (stereo not given) the results were BJeLR viability -10, PrP 5UTR inh 6, Sa RN4220 lethal 2.5, Mtb hypoxia rep 5, ugtP null kill 1, Bead autofluor inconclusive and Mtb hypoxia rep growth -5.
`C=C1CCN(C(C(=O)OCc2cccc(C)c2)C(C)C)S(=O)(=O)c2ccccc21` (stereo not given) gave Sa RN4220 lethal 9.7, Mtb hypoxia rep 3, ugtP null kill 17 and Mtb hypoxia rep growth 10.
For COc1cc(-c2nnc(SCC(=O)N3c4ccccc4Sc4ccccc43)o2)cc(OC)c1OC the results were BJeLR viability 4, PrP 5UTR inh -7, Sa RN4220 lethal -9.9, Mtb hypoxia rep 17, ugtP null kill -7, Bead autofluor 3263 and Mtb hypoxia rep growth 8.
CC(C)CNc1nc(=S)nc(N(C)C)[nH]1 was read as BJeLR viability -20, PrP 5UTR inh -17, Sa RN4220 lethal -0.3, Mtb hypoxia rep 1, ugtP null kill 3, Bead autofluor 11623 and Mtb hypoxia rep growth 8.
CC12CCCCC1N(O)CN2O (stereo not given) was read as BJeLR viability 8, PrP 5UTR inh -17, Sa RN4220 lethal 3.8, ugtP null kill -1 and Bead autofluor 2583.
`CC(=NNC(=O)c1cccc(S(=O)(=O)N2CCOCC2)c1)c1ccccc1` gave PrP 5UTR inh -46, Sa RN4220 lethal 1.8, Mtb hypoxia rep 3, ugtP null kill 0, Bead autofluor 4037 and Mtb hypoxia rep growth 15.
For O=C1CN(C(=O)CSc2nnc(Nc3ccccc3)s2)c2ccccc2N1 the results were BJeLR viability -9, PrP 5UTR inh -20, Sa RN4220 lethal 3.0, Mtb hypoxia rep 14, ugtP null kill 11, Bead autofluor 2041 and Mtb hypoxia rep growth 4.
Screening c1ccc(-c2nc(N3CCN(c4ccccc4)CC3)nc(-n3ccnc3)n2)cc1 returned BJeLR viability -2, PrP 5UTR inh 3, Sa RN4220 lethal -4.9, Mtb hypoxia rep 3, ugtP null kill -27, Bead autofluor 16016 and Mtb hypoxia rep growth 3.
OC1C2CN3CN(C2)CC1(c1ccccc1)C3 (stereo not given) was read as BJeLR viability 10, Sa RN4220 lethal 0.5, Mtb hypoxia rep 6, ugtP null kill 4, Bead autofluor 4003 and Mtb hypoxia rep growth -8.
`O=C(COc1ccc2c3c(c(=O)oc2c1)CCC3)NCCCN1CCOCC1` gave BJeLR viability -8, PrP 5UTR inh -23, Sa RN4220 lethal -0.5, Mtb hypoxia rep 7, ugtP null kill 5, Bead autofluor 5221 and Mtb hypoxia rep growth 9.
For CCCCOc1ccc(C(=O)NN2CCN(C)CC2)cc1 the results were BJeLR viability 1, PrP 5UTR inh -13, Sa RN4220 lethal 2.5, Mtb hypoxia rep 1, ugtP null kill 3, Bead autofluor 9217 and Mtb hypoxia rep growth -5.
Screening CC(C)(C)OC(=O)NN=Cc1cccnc1 returned Sa RN4220 lethal 7.4, Mtb hypoxia rep -8, ugtP null kill 11 and Mtb hypoxia rep growth -4.
COC(=O)C1=CO[C@@H](O[C@@H]2O[C@H](CO)[C@@H](O)[C@H](O)[C@H]2O)[C@H]2[C@@H]1C(=O)C[C@@H]2C was read as PrP 5UTR inh -21, Sa RN4220 lethal -8.3, Mtb hypoxia rep 9, ugtP null kill -6, Bead autofluor 3976 and Mtb hypoxia rep growth 7.
Cc1ccccc1Nc1nnc(SCc2cc([N+](=O)[O-])cc3c2OCOC3)s1 was read as BJeLR viability -1, PrP 5UTR inh -2, Sa RN4220 lethal 4.5, Mtb hypoxia rep -1, ugtP null kill 5, Bead autofluor 8141 and Mtb hypoxia rep growth 1.
`CC(=O)N/C(=C\c1ccc(C)o1)C(=O)NCc1ccccc1` gave BJeLR viability -8, PrP 5UTR inh -21, Sa RN4220 lethal 2.4, Mtb hypoxia rep 9, ugtP null kill 6, Bead autofluor 4214 and Mtb hypoxia rep growth -2.
`O=C(CSc1nnc(-c2ccccc2F)o1)NC(=O)Cc1ccccc1` gave Sa RN4220 lethal 2.6, Mtb hypoxia rep 2, ugtP null kill 6, Bead autofluor 7188 and Mtb hypoxia rep growth 5.
For O=C(Nc1cccc2ccccc12)ON=C1CCCCC1 the results were Sa RN4220 lethal -1.5, Mtb hypoxia rep 10, ugtP null kill -4, Bead autofluor 3808 and Mtb hypoxia rep growth -7.
Cc1sc2c(=O)n3c(nc2c1C(=O)NC1CCCCC1)CCCCC3 was read as BJeLR viability 10, PrP 5UTR inh -15, Sa RN4220 lethal 4.4, ugtP null kill -4 and Bead autofluor 2161.
`O=C(CN1C(=O)COc2ccccc21)NCCC1=CCCCC1` gave BJeLR viability 5, PrP 5UTR inh -15, Sa RN4220 lethal 1.8, Mtb hypoxia rep 1, ugtP null kill 2, Bead autofluor 11178 and Mtb hypoxia rep growth 8.
`Cc1cccc(C(=O)OCC(=O)Nc2sc3c(c2C#N)CCC3)c1` gave BJeLR viability -6, PrP 5UTR inh -15, Sa RN4220 lethal 5.3, Mtb hypoxia rep 15, ugtP null kill 0, Bead autofluor 7105 and Mtb hypoxia rep growth 3.
CC(=O)N1CCN(C(=O)CCc2nnc(CCCCc3ccccc3)o2)CC1 was read as PrP 5UTR inh -11, Sa RN4220 lethal 6.3, Mtb hypoxia rep 11, ugtP null kill 9, Bead autofluor 3075 and Mtb hypoxia rep growth -2.
`O=C(CSc1ccc(Cl)cc1)N/N=C/c1cccnc1` gave BJeLR viability 6, PrP 5UTR inh 4 and Bead autofluor 4101.
`COC(=O)C1=C(c2cc3ccccc3s2)CC2CCC1N2C(=O)NCc1ccco1` (stereo not given) gave Sa RN4220 lethal 5.1, Mtb hypoxia rep 20, ugtP null kill 5 and Mtb hypoxia rep growth 14.
Screening O=C(Nc1ccc2ccccc2c1)c1cc(F)c(F)cc1Cl returned BJeLR viability 3, PrP 5UTR inh -66, Sa RN4220 lethal 0.1, Mtb hypoxia rep -7, ugtP null kill -11, Bead autofluor 4073 and Mtb hypoxia rep growth 10.
Screening Cc1cccc(-n2c(C)nc3cc(C(=O)N4CCOCC4)ccc32)c1 returned BJeLR viability -1, PrP 5UTR inh -19, Sa RN4220 lethal 1.3, Mtb hypoxia rep -3, ugtP null kill 2, Bead autofluor 5861 and Mtb hypoxia rep growth 2.
COc1ccc(/C(C#N)=C/c2cccnc2)cc1 was read as BJeLR viability 14, PrP 5UTR inh -30 and Bead autofluor 3799.
`Cc1c(Cl)ccc(S(=O)(=O)NCCCn2ccnc2)c1Cl` gave BJeLR viability 15, PrP 5UTR inh -20, Sa RN4220 lethal 4.2, Mtb hypoxia rep 1, ugtP null kill 5, Bead autofluor 4696 and Mtb hypoxia rep growth 11.
For CC(=O)c1ccc(OCC(=O)N2CCN(S(=O)(=O)c3ccc(C)cc3C)CC2)cc1 the results were BJeLR viability -15, PrP 5UTR inh 2, Sa RN4220 lethal 3.1, Mtb hypoxia rep 9, ugtP null kill -2, Bead autofluor 5774 and Mtb hypoxia rep growth 7.
`Cn1c(=N)c(S(=O)(=O)c2ccccc2)cc2c(=O)n3ccccc3nc21` gave PrP 5UTR inh -3, Sa RN4220 lethal 2.8, ugtP null kill 4 and Bead autofluor 4233.
COc1ccc(C2C3=C(CC(C)(C)CC3=O)Nc3c2c(=O)[nH]c2nc(C)nn32)cc1 (stereo not given) was read as BJeLR viability -3, PrP 5UTR inh -18, Sa RN4220 lethal 0.1, Mtb hypoxia rep -1, ugtP null kill 0, Bead autofluor inconclusive and Mtb hypoxia rep growth 3.
For CCOC(=O)c1ccccc1NC(=O)COC(=O)CN1C(=O)NC2(CCCC2)C1=O the results were BJeLR viability 3, PrP 5UTR inh -20 and Bead autofluor 4170.
Screening CCCC(=O)Nc1c2c(nn1-c1ccc(C)cc1)CS(=O)(=O)C2 returned BJeLR viability 4, PrP 5UTR inh -7, Sa RN4220 lethal 2.5, Mtb hypoxia rep 3, ugtP null kill 1, Bead autofluor 2973 and Mtb hypoxia rep growth -3.
CCCOc1cccc(C(=O)O)c1 was read as BJeLR viability -1, PrP 5UTR inh -14, Sa RN4220 lethal 2.4, Mtb hypoxia rep 2, ugtP null kill 0, Bead autofluor 4484 and Mtb hypoxia rep growth 13.
Fc1ccc(/C=N/N2CCOCC2)c(F)c1 was read as BJeLR viability -2, PrP 5UTR inh -3 and Bead autofluor 3442.
`Cc1ccc(C(=O)NCC(=O)OCC(=O)c2ccc(Br)s2)cc1` gave BJeLR viability -4, PrP 5UTR inh -16, Sa RN4220 lethal 0.3, Mtb hypoxia rep 0, ugtP null kill -3 and Mtb hypoxia rep growth 9.
COC(=O)c1onc(C(=O)c2ccccc2)c1C(=O)OC was read as BJeLR viability 2, PrP 5UTR inh -24, Sa RN4220 lethal -0.2, Mtb hypoxia rep 8, ugtP null kill -1, Bead autofluor 11096 and Mtb hypoxia rep growth 8.
Cc1c(C(=O)Nc2ccc3nc(N4CCOCC4)sc3c2)oc2ccccc12 was read as PrP 5UTR inh -13, Sa RN4220 lethal -4.9, Mtb hypoxia rep 5, ugtP null kill 0, Bead autofluor 2981 and Mtb hypoxia rep growth -2.
`NCCCC[C@H]1CN=C(N)N1CC1CCCCC1` gave BJeLR viability 2, PrP 5UTR inh 4 and Bead autofluor 3666.
Screening CCOc1ccc(-c2ccc3nnc(SCC(=O)NCC4CCCO4)n3n2)cc1 (stereo not given) returned BJeLR viability -3, PrP 5UTR inh -43, Sa RN4220 lethal 4.7, Mtb hypoxia rep 5, ugtP null kill 11 and Mtb hypoxia rep growth -1.
Screening O=[N+]([O-])c1cccc(CP(=O)(c2ccccc2)c2ccccc2)c1 returned PrP 5UTR inh -10, Sa RN4220 lethal 5.9, Mtb hypoxia rep 13, ugtP null kill -1, Bead autofluor 3534 and Mtb hypoxia rep growth 1.
Cn1c2c(c(=O)[nH]c1=O)C(c1ccc(O)cc1)C1=C(N2)c2ccccc2C1=O (stereo not given) was read as BJeLR viability -4, PrP 5UTR inh -3, Sa RN4220 lethal 21, Mtb hypoxia rep 4, ugtP null kill 0, Bead autofluor 4288 and Mtb hypoxia rep growth 9.
O=C(NC1CC2CCCC(C1)N2C(=S)Nc1ccc(Cl)cc1)C1CC1 (stereo not given) was read as BJeLR viability 1, PrP 5UTR inh -8, Sa RN4220 lethal 2.5, Mtb hypoxia rep 7, ugtP null kill 7, Bead autofluor 5346 and Mtb hypoxia rep growth 5.
`COc1cc(CC(=O)OCC(=O)NCc2ccco2)cc(OC)c1OC` gave PrP 5UTR inh -20, Sa RN4220 lethal 1.8, Mtb hypoxia rep 16, ugtP null kill 5, Bead autofluor 3427 and Mtb hypoxia rep growth 5.
`O=[N+]([O-])c1ccc(NS(=O)(=O)c2ccccc2)c(Cl)c1` gave PrP 5UTR inh -10, Sa RN4220 lethal 37, Mtb hypoxia rep 10, ugtP null kill 24, Bead autofluor 3832 and Mtb hypoxia rep growth 12.
For CC(Sc1nnc2ccccn12)C(=O)Nc1ccc2c(c1)OCO2 (stereo not given) the results were BJeLR viability -4, PrP 5UTR inh -2, Sa RN4220 lethal 1.2, Mtb hypoxia rep -2, ugtP null kill 6, Bead autofluor 3216 and Mtb hypoxia rep growth 2.
Screening C=CCN1C(=O)C(=Cc2ccc(Cl)cc2)N=C1SCC(=O)NC1CCCCC1 returned Sa RN4220 lethal 4.7, Mtb hypoxia rep 14, ugtP null kill 6 and Mtb hypoxia rep growth 10.
Screening COc1ccc(NC(=O)/C(=C\c2ccccc2)NC(=O)c2ccco2)cc1 returned BJeLR viability -5, PrP 5UTR inh -28, Sa RN4220 lethal 0.5, Mtb hypoxia rep 15, ugtP null kill 2, Bead autofluor 3889 and Mtb hypoxia rep growth 1.
O=C(Nc1ncc(Cc2ccc(Cl)cc2Cl)s1)c1ccc([N+](=O)[O-])cc1 was read as BJeLR viability 14, PrP 5UTR inh -13, Sa RN4220 lethal -4.6, Mtb hypoxia rep -5, ugtP null kill -31, Bead autofluor 2548 and Mtb hypoxia rep growth -5.

For reference, part of the list above:
`O=[N+]([O-])c1ccc(NS(=O)(=O)c2ccccc2)c(Cl)c1` gave PrP 5UTR inh -10, Sa RN4220 lethal 37, Mtb hypoxia rep 10, ugtP null kill 24, Bead autofluor 3832 and Mtb hypoxia rep growth 12.
For CC(Sc1nnc2ccccn12)C(=O)Nc1ccc2c(c1)OCO2 (stereo not given) the results were BJeLR viability -4, PrP 5UTR inh -2, Sa RN4220 lethal 1.2, Mtb hypoxia rep -2, ugtP null kill 6, Bead autofluor 3216 and Mtb hypoxia rep growth 2.
